Assay outcomes (PubChem)
NPYLR7 agonist – agonists of mosquito NPYLR7 receptor, primary screen, cell-based, Aedes aegypti, calcium fluorescence, mosquito biting behavior | Aedes aegypti neuropeptide Y-like receptor 7 (NPYLR7) | HEK293T NPYLR7/Galpha15, GCaMP6s calcium fluorescence | activation, % at 10 µM | 270,000 tested, 0.15% active; in the data active = activation above about 40%;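 also: 0% = vehicle and 100% = reference agonist at the receptor; some compounds past the cut are filed as inactive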
NPYLR7 agonist max-min – recorded beside NPYLR7 agonist, whose call it bears; activation, %; measured here: Max-Min RFU normalised activation; some inactives read as strong as hits;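 span of the calcium signal over five minutes; 0% = vehicle and 100% = native peptide agonist; compound fluorescence can raise it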
* marks the source's active call; other numbers are inactive results; & = joins results of further samples.

SMILES	NPYLR7 agonist	NPYLR7 agonist max-min
CC(C)NCC(=O)N(CCc1c[nH]c2ccccc12)Cc1ccc(C(F)(F)F)cc1	28	17
Cc1ccc(C2c3cccn3CCCN2Cc2ccccn2)c(C)c1 (configuration not stated)	19	21
Cc1noc(C)c1CN(C)C(=O)c1cc(C(C)C)n2ncnc2n1	-3	-2
CC(C)NC(=O)C1(C)CCN1Cc1ccc(C(F)(F)F)cc1 (configuration not stated)	3	0
COc1ccccc1N1CCN(C(=O)Cc2nc3nc(C)cc(C)n3n2)CC1	3	0
CC(C)(C(=O)NCCSc1ccc(Cl)cc1)c1ccccc1	2	16
CCOC(=O)C=C1c2ccccc2-c2ccccc21	-7	-6
COc1ccccc1CCC(=O)Nc1cnn(CC(=O)N2CCC(c3ccccc3Cl)C2)c1 (configuration not stated)	-14	-12
CC1c2cccn2CCN1C(=O)c1cn[nH]c1-n1cnnn1 (configuration not stated)	11	7
O=C1CCc2cc(C(=O)N3CCN(c4ccc(Br)cn4)CC3)ccc2N1	6	4
CN(Cc1nccn1Cc1ccccc1)C(=O)C1CC2(CCNCC2)CN1 (configuration not stated)	17	2
CCOc1ccc(N2C(=O)CC(N(Cc3ccco3)C(=O)CCC(=O)O)C2=O)cc1 (configuration not stated)	-3	-5
CCc1c(C)[nH]n(-c2nc(-c3cccc([N+](=O)[O-])c3)cs2)c1=O	2	0
CCSc1sc(CC)c(C(=O)O)c1C=O	12	5
Cc1ccsc1C(=O)NNC(=O)c1nn(C)c(=O)c2ccccc12	1	-1
c1ccc(-c2noc(CN3CCc4ccccc4C3)n2)nc1	-6&-2	-8&-6
CCOC(=O)CC(=O)Nc1cc(-c2onc3c2CCCC3)cc(C(F)(F)F)c1	19	24
FC(F)(F)C1CCCN(CCCc2nnnn2-c2ccccc2)C1 (configuration not stated)	2	-1
CCCS(=O)(=O)NC(=O)C1(C)CCN1C(=O)c1ccc(C(F)(F)F)nc1C (configuration not stated)	1	0
CN(C)C(=O)CCNC(=O)CC(c1ccccc1)C(F)(F)F (configuration not stated)	-18	-17
CCOC(=O)c1nn(-c2ccc(C)cc2)c(=O)c2c(NC(=O)CSCc3ccccc3)scc12	-9	-8
CCCN(Cc1cccc(OC)c1OC)CC(O)COc1ccc(OC)cc1 (configuration not stated)	15	15
O=c1cc(CCc2nc(C3CC3)nn2-c2ccc3c(c2)OCCO3)o[nH]1	12	9
COc1ccc(-n2c(SCCN3CCOCC3)nnc2-c2ccc(Cl)cc2)cc1	1	0
C#CC(C)(CC)OCC(O)CN1CCN(C)CC1 (configuration not stated)	0	6
COc1ccccc1NC(=O)c1c(I)cnn1C	-15	-22
Cc1cccc(COC2CCCN(C(=O)CCc3ccccc3)C2)c1 (configuration not stated)	-1	8
COC(=O)N1CCC(Nc2ncnc3c2CCCC3)CC1	-1&-2	-2&38
Cc1c(COC(C)C)cccc1NC(N)=O	-1	-7
CC1(Cc2ccccc2Cl)C(=O)Nc2ccc(S(=O)(=O)NC3CCCCC3)cc21 (configuration not stated)	1	4
CCC1CCCCN1CC(C)(C)NS(=O)(=O)c1ccccc1 (configuration not stated)	8	3
CCOC(=O)N1CCC(NC2CCN(c3ccc(NC(=O)Cc4ccc(OC)cc4)cc3)CC2)CC1	2	-2
O=C(CN1CCc2sccc2C1c1cccc(F)c1)N1CCCN(C(=O)c2ccc(Cl)cc2)CC1 (configuration not stated)	10	-1
Cc1c(CN(C)Cc2ccsc2)cnn1C	-7	-7
Cc1cccc(C)c1NC(=O)CN(C)C(C)c1nnc(-c2cccs2)o1 (configuration not stated)	1	8
CCOC(=O)Cn1c(=NC(=O)c2cc(C)no2)sc2cc(SC)ccc21	9	11
COc1cc(C(=O)c2c(C(F)(F)F)oc3c2C(=O)c2ccccc2C3=O)cc(OC)c1OC	-12	-22
CN1CCn2nc(C(=O)N(C)CCC(O)c3ccccc3)cc2C1 (configuration not stated)	12	8
CC(C)(C(=O)N1CCC1(C)C(=O)Nc1ccccc1Br)c1ccccc1 (configuration not stated)	8	6
O=C(COc1ccc(Br)cc1)N=Nc1c(O)[nH]c2ccccc12	-3	-5
Cc1ccccc1CSc1nnc(C(C)NC(=O)/C=C/c2ccccc2)n1-c1cc(Cl)ccc1C (configuration not stated)	-11	-7
CC(=O)O[C@@H](C)C(=O)NCCCN(C)c1ccccc1	17	12
Cc1cc(-c2c(-c3ccccc3)ncn2Cc2noc(C3CCCC3)n2)n[nH]1	-2	-11
Cn1cc(CN2CCSCC2)c(-c2cccc(Cl)c2)n1	9&0	4&-3
O=C(c1cccc(F)c1)N(Cc1cccnc1)c1nc2cc3c(cc2s1)OCCO3	-18	-11
Nc1nc(N)nc(-c2ccccc2)n1	5	4
Cc1ccn2c(=O)nc(SC(C)c3ccccc3)nc2c1 (configuration not stated)	0	-1
O=C(/C=C/c1cccs1)NCC1Cc2cc(Cl)cc(-c3ncccn3)c2O1 (configuration not stated)	27	11
O=C(Nc1ccccc1C(=O)N=Nc1c(O)[nH]c2ccccc12)c1ccccc1	-3	-3
CNC(=O)NC(=O)COC(=O)c1oc2ccc(Br)cc2c1C	1	1
CSc1ccccc1C(=O)NCc1c(C)ncc2c1CCN(C(=O)C1COc3ccccc3O1)C2 (configuration not stated)	24	6
Fc1ccc(Nc2nnnc3c2cnn3-c2ccccc2)c(F)c1	3	2
CN(C)S(=O)(=O)c1ccc(Cl)c(C(=O)N=c2sccn2C)c1	8	7
O=C(c1ccc(-n2cccc2)cc1)N1CCC2(C=Cc3ccccc32)CC1	13	15
COc1ccc2[nH]c3c(c2c1)CCN(C(=O)c1cc(C)on1)C3c1ccc(-c2ccccc2C(F)(F)F)o1 (configuration not stated)	14	5
COCCCNc1nc(N)c([N+](=O)[O-])c(Nc2ccc(C)cc2)n1	4	10
Cc1ccc(CNC(=O)c2ccccc2C(F)(F)F)cn1	10	3
NC(=S)NN=Cc1c[nH]c2ccccc12	5	4
C=CCn1cc([C@@H]2C[C@H](NC(C)=O)C[C@H](c3cc(F)cc(F)c3)O2)cn1	3	3
NC(=O)COc1ccc(C(=O)N2CCC3CCCCC3C2)cc1 (configuration not stated)	4	0
More structures.
SMILES	NPYLR7 agonist	NPYLR7 agonist max-min
CCCc1cc(C(=O)N2CCC3(CCCN(Cc4ccc(F)cc4)C3)C2)n[nH]1 (configuration not stated)	1	-3
O=C(O)Cc1csc(SCc2ccccc2)n1	4	3
CCOC(=O)c1nn(-c2ccccc2C)c(=O)cc1OS(=O)(=O)c1ccc(Cl)s1	12	5
Cn1c(=O)c(C(=O)Nc2cccc(F)c2)c(O)c2ccccc21	13	11
O=C1OC23CCC(CC2)N(c2ccccn2)C3CN1Cc1ccccc1 (configuration not stated)	19	25
O=C(Cn1cnc2c(nnn2-c2cccc(F)c2)c1=O)c1ccccc1	-5	-7
O=C(Nc1ccc(N2CCC(Cc3ccccc3)CC2)c(C(=O)NCc2cccnc2)c1)c1cc(Cl)cc(Cl)c1	19	15
CCOc1cc(C2Nc3ccccc3C(=O)N2C)cc(Cl)c1OC (configuration not stated)	2	-1
CCN(CC)C(=O)CSc1nc(=O)n2cc(C)ccc2n1	4	3
O=C(NC1CC1)c1csc(CSc2nnc(-c3ccccc3Cl)n2-c2ccccc2F)n1	-5	-3
O=C(c1cn(Cc2ccccc2)cc2c(=O)n(-c3ccccc3)nc1-2)N1CCc2ccccc2C1	5	3
O=C(Nc1ccc2c(c1)OCO2)C(C1CCCC1)N1CCN(C(=O)c2ccc([N+](=O)[O-])cc2)CC1 (configuration not stated)	15	15
O=S(=O)(CCSc1ccccn1)c1nc2ccccc2s1	1	-3
CC(C)c1nnsc1CNC(=O)C1CCCN(C(=O)N(C)C)C1 (configuration not stated)	2	-1
CCOc1cccc(-c2cc(C(=O)N3CCN(c4ncccn4)CC3)c3ccccc3n2)c1	7	4
Cc1nc(C(C)NC(=O)CCC2CCCC2)n[nH]1 (configuration not stated)	-1	-2
Cc1nc2scc(-c3cccc(NC(=O)Nc4ccc(F)cc4)c3)n2c(=O)c1C	-7	-6
O=C(C1CCC1)N(Cc1ccc(F)cc1F)CC1CC(c2ccc(Cl)cc2)=NO1 (configuration not stated)	-7	8
Cn1c(=O)[nH]c(=O)c2c1nc(N1CCC(Cc3ccccc3)CC1)n2Cc1ccccc1	3	4
Cc1ccccc1NC(=O)CCNC(=O)COc1c(C)ccc(C)c1C	1	-9
CC(C)c1ccc(NC2CCCN(C(=O)c3cc(C(C)C)nc(N)n3)C2)cc1 (configuration not stated)	16&3	3&-1
Cc1cccc(COc2cccc3ccc(N4CCC(C(N)=O)CC4)nc23)c1	15	12
CC1CCN(C(c2ccco2)C2Sc3nc(-c4ccco4)nn3C2=O)CC1 (configuration not stated)	3	1
COc1ccc(C2c3cccn3-c3ccccc3N2C(=O)CN(C(=O)c2ccccc2Cl)C2CC2)cc1 (configuration not stated)	-10	2
CCNc1ccnc(-c2cc(OC)ccc2F)n1	4	2
COc1cc(NC(=O)C(C2CCCC2)N2CCN(C(=O)CCc3ccccc3)CC2)cc(OC)c1 (configuration not stated)	-2	3
COc1cc(C(=O)N(C)CC2CCCN(CCc3cccc(C(F)(F)F)c3)C2)ccc1C (configuration not stated)	0	-1
CCOC(C)C(=O)Nc1[nH]ncc1C(=O)NCc1ccc(OC)cc1 (configuration not stated)	-1	-5
COc1ccc(C2CC(=O)C3C(=Nc4ccccc4NC3c3ccccn3)C2)cc1 (configuration not stated)	-1	-3
Cc1nc2ncnn2c(N2CCN(C(=O)c3ccc(Cl)nc3)CC2)c1Cc1ccccc1	-1	-5
COc1ccc(CCN2CC(Nc3cnc4ccccc4n3)CC2=O)cc1 (configuration not stated)	1	-1
c1ccc2nc(Cn3cnnc3)ccc2c1	-2	6
O=C(Cc1cccc(F)c1)NC1CC(=O)N(Cc2ccc(F)cc2)C1 (configuration not stated)	7	5
CCC(C(=O)NC(Cc1ccccc1)C(=O)Nc1nnc(-c2ccc(Cl)cc2)s1)c1ccccc1 (configuration not stated)	-10	2
CCOc1ccc(Cl)c(C(=O)Nc2nc(CC)c(C)s2)n1	3	1
Cn1nc(Oc2nc(N3CCOCC3)nc(N3CCOCC3)n2)ccc1=O	1	0
Cc1nnsc1CN(C)C(=O)c1ncn[nH]1	14	12
COc1ccc(-c2nc3ccccc3c(C(=O)Nc3ccc(C(C)=O)cc3)c2C)cc1	3	2
CCCc1cc(=O)n2[nH]c(C)c(-c3ccccc3)c2n1	-4&-1	-5&19
CC(=O)N1CCN(c2nc(-c3ccccc3)c3cc(Br)ccc3n2)CC1	-10	-14

Complete entries, quoted from the list. Order of values: NPYLR7 agonist | NPYLR7 agonist max-min
Results for COc1ccc(CCN2CC(Nc3cnc4ccccc4n3)CC2=O)cc1 (configuration not stated) : 1 | -1
Results for COc1cc(C(=O)N(C)CC2CCCN(CCc3cccc(C(F)(F)F)c3)C2)ccc1C (configuration not stated) : 0 | -1

Next structures
SMILES	NPYLR7 agonist	NPYLR7 agonist max-min
CCOC(=O)c1nn(-c2ccc(F)cc2)c(=O)cc1N1CCN(c2ccccc2Cl)CC1	9	2
COc1cc(Cl)ccc1C(=O)NCCN1CCCC1	8	8
COc1ccc(-c2cc(=O)n(CC(=O)Nc3cccnc3)cn2)cc1	11	4
N#CCCN(CC(=O)Nc1ccc(C(F)(F)F)cc1)c1ccccc1	3	0
C[C@@H](c1cccc2ccccc12)N(C)Cc1ccc(C(=O)N2C3CCC2CC(Oc2cccc(C(F)(F)F)c2)C3)cc1 (some centres not stated)	25	12
COc1cc(=O)n(-c2ccc(C)cc2)nc1C(=O)N(Cc1ccccc1)c1ccccc1	9	4
CC(=O)c1ccc(S(C)(=O)=O)c(N(C)Cc2cccs2)c1	13	11
CC1(C(=O)NCc2ccco2)CCN1C(=O)C1(c2ccc(Cl)cc2)CC1 (configuration not stated)	-6	-4
CCCNC(=O)c1cccc(NCC(=O)Nc2ccc(C)c(C)c2)c1	3	1
COc1ccc(-c2cc(NS(C)(=O)=O)n(C3CCS(=O)(=O)C3)n2)cc1 (configuration not stated)	-1	-2
CC1ON=C(c2ccccc2F)NC1=O (configuration not stated)	3	0
CC(C)(CO)NCc1cccc(Oc2ncccn2)c1	6	2
CCn1c(=O)c2c(nc3n2CCN3c2ccc(C)c(C)c2)n(C)c1=O	11	10
OCC1(Cc2ccccc2Cl)CCN(C2CCN(c3ccccc3)CC2)CC1	3	0
O=C(Nc1ccc2c(c1)CCC2)c1cc2n(n1)CCN(Cc1cccc(Cl)c1)C2=O	13	7
O=C(NC1CC1)C1CCN(c2ccc3ccccc3c2)C1=O (configuration not stated)	6	4

A draw from above in order of heavy-atom count, high to low.
SMILES	NPYLR7 agonist	NPYLR7 agonist max-min
C[C@@H](c1cccc2ccccc12)N(C)Cc1ccc(C(=O)N2C3CCC2CC(Oc2cccc(C(F)(F)F)c2)C3)cc1 (some centres not stated)	25	12
COc1cc(=O)n(-c2ccc(C)cc2)nc1C(=O)N(Cc1ccccc1)c1ccccc1	9	4
COc1ccc(-c2nc3ccccc3c(C(=O)Nc3ccc(C(C)=O)cc3)c2C)cc1	3	2
O=C(Nc1ccc2c(c1)CCC2)c1cc2n(n1)CCN(Cc1cccc(Cl)c1)C2=O	13	7
OCC1(Cc2ccccc2Cl)CCN(C2CCN(c3ccccc3)CC2)CC1	3	0
CC(=O)N1CCN(c2nc(-c3ccccc3)c3cc(Br)ccc3n2)CC1	-10	-14
N#CCCN(CC(=O)Nc1ccc(C(F)(F)F)cc1)c1ccccc1	3	0
O=C(NC1CC1)C1CCN(c2ccc3ccccc3c2)C1=O (configuration not stated)	6	4
CC(=O)c1ccc(S(C)(=O)=O)c(N(C)Cc2cccs2)c1	13	11
CCCc1cc(=O)n2[nH]c(C)c(-c3ccccc3)c2n1	-4&-1	-5&19
COc1cc(Cl)ccc1C(=O)NCCN1CCCC1	8	8
Cc1nnsc1CN(C)C(=O)c1ncn[nH]1	14	12
CC1ON=C(c2ccccc2F)NC1=O (configuration not stated)	3	0

This is a subset; the hit share may differ from the screen's.
